Screening data as filed in PubChem BioAssay.
Mtb hypoxia inh = PubChem AID 1159583; M. tuberculosis hypoxia-regulated fluorescent reporter, fluorescence; fluorescence inhibition, % (test concentration not listed); 0.1% of 300,000 active;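 active = 35 to 45% if threefold the growth effect, above 45% if 1.5-fold the growth effect; inactive = the rest, general growth blockers included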;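 note: wells of about 50 µL received 100 nL stock; 0% = vehicle wells and 100% = reference inhibitor wells; whole bacteria with a GFP reporter of the hypoxia response; strong numbers were not always called active; many hits fall short of the cut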
RN4220 kill = growth inhibition of S. aureus RN4220, primary screen, OD600; 16 h; inhibition, % (no concentration beside the values); 0.33% of 330,000 active; AID 1259311, 2017;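 active = z-score of -3 or lower and OD600 up to 0.18 on both plates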;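 note: plate controls were untreated cells for no effect and reference antibiotic for full effect; stock transfer was 100 nL into about 80 µL; one replicate is shown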
Sa ugtP lethal = growth inhibition of ugtP-null S. aureus, primary screen, RN4220 ugtP deletion, OD600 | 16 h; some inactives read as strong as hits | growth inhibition, % (test concentration not listed) | 0.54% of 330,000 active | AID 1259309, 2017;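 active = z-score under -3 and OD600 up to 0.15 on both plates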;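 note: plate controls were untreated wells for no effect and antibiotic for full effect; wells of about 80 µL received 100 nL stock; the first replicate is given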
Autofluor counter = compound fluorescence in toxin protease inhibitor counterscreen; compound autofluorescence counterscreen, microsphere flow cytometry; hits give high values; fluorescence intensity (no concentration beside the values); 3.1% of 360,000 active; AID 624483;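 active = at least 3 SD above the mean of all compounds, about 16000 in these data; inconclusive = too few beads counted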;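 note: 100 nL of 1 mM stock went into each well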
PrP UTR inh = inhibition of PrP 5' UTR reporter expression; inhibition, % (no concentration beside the values); cell-based PrP 5' UTR mRNA reporter, plate reader; 0.35% of 340,000 active;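 active = every replicate at 50% or more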;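 note: 0 = median of the neutral control wells; tested in H4 reporter cells; numbers are from one replicate; inactives centre near -14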
BJeLR viability = MLPCN primary cell-based screen for lethality selective to Ras in HRASV12 cells; BJeLR (HRASV12) viability, CellTiter-Glo ATP luminescence, 48 h; reference of the scale not given here; inhibition, % (concentration not given with the values); 0.17% of 300,000 active;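 active = replicate mean above 50%; inconclusive = above 50% but judged a plate artefact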;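 note: 50 nL library stock added to about 25 µL; numbers are from one replicate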
Mtb hypoxia inh growth = further read-out of Mtb hypoxia inh, marked with its call; growth inhibition, %; measured here: M. tuberculosis growth (absorbance);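 0% = vehicle and 100% = reference antibiotic; read after six days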
Starred values were filed as active, the others as inactive; u = inconclusive; x = no result given.

#1 C=CCc1ccccc1OCC(O)CN1CCN(CCO)CC1 (configuration not stated)
#2 Cc1cccc(NC(=O)c2ccc(N3CCCCC3)c([N+](=O)[O-])c2)n1
#3 CCOC(=O)Cn1nnc2c(sc3nc4c(c(-c5ccc(Cl)cc5)c32)CCC4)c1=O
#4 C/C(=N\NC(=O)c1ccoc1C)c1ccccc1O
#5 O=C(COC(=O)c1cnccn1)c1ccc(OC(=O)c2ccccc2)cc1
#6 O=c1ccc(-c2ccccc2)nn1Cc1ccc(Cl)cc1
#7 CCC(Sc1nc2c(cnn2-c2ccc(Cl)cc2)c(=O)[nH]1)C(=O)OC (configuration not stated)
#8 O=[N+]([O-])c1ccc(N/N=C/c2c[nH]c3ccccc23)c(S(=O)(=O)Nc2ccc(Cl)cc2)c1
entry no.,1,2,3,4,5,6,7,8
Mtb hypoxia inh,-1,4,-3,x,10,x,8,x
Mtb hypoxia inh growth,3,-2,-1,x,11,x,6,x
RN4220 kill,4.3,15,-0.5,x,-0.2,x,-4.6,x
Sa ugtP lethal,9,-16,-26,x,-1,x,-5,x
Autofluor counter,4065,24725*,2979,5871,3695,3827,5777,6215
PrP UTR inh,-10,-138,-5,-61,-30,-41,-13,-16
BJeLR viability,3,12,5,11,9,-9,-1,4

#9 CCC(=O)Nc1ccc(NC(=O)c2cccc3c(Br)cccc23)cc1
#10 Cc1cccc(CCN2CCN=C2Nc2ccccc2)c1
#11 Cc1cc(C)cc(NC(=O)Nc2ccc3c(c2)N(C)C(=O)CS3)c1
#12 Cc1cccc(OCC(=O)Nc2ccc3c(c2)C(=O)NC3=O)c1
#13 COc1ccc(/C=N/NC(=O)c2ccc(=O)n(C)c2)cc1OC
#14 Cc1cc(C)cc(NC(=O)C2C3C=CC4(O3)C2C(=O)N(CCN2CCCCC2)C4C(=O)NC2CCCCC2)c1 (configuration not stated)
#15 CC1(c2ccccc2Cl)NC(=O)N(CC(=O)N2CCc3ccccc3C2)C1=O (configuration not stated)
#16 CCOc1ccc(S(=O)(=O)N2CCN(CN3C(=O)CC4(CCCC4)C3=O)CC2)cc1
entry no.,9,10,11,12,13,14,15,16
Mtb hypoxia inh,5,7,x,-4,x,2,11,-7
Mtb hypoxia inh growth,4,10,x,-2,x,5,0,1
RN4220 kill,6.3,6.1,-1.7,2.7,x,0.3,4.8,-4.6
Sa ugtP lethal,1,-6,6,-6,x,15,11,-6
Autofluor counter,3353,4123,5434,4743,2243,5225,6154,6622
PrP UTR inh,5,-13,3,-6,-22,-15,-13,-4
BJeLR viability,-9,x,6,9,-12,-5,x,x

#17 CN(C)P(=O)(Nc1cccc2ccccc12)Nc1cccc2ccccc12
#18 CCOc1cc(S(=O)(=O)NCCc2cccc(C)c2)c(OCC)cc1-n1cnnn1
#19 COc1cccc(/C=C/C(=O)c2cccc([N+](=O)[O-])c2)c1OC
#20 O=[N+]([O-])c1c(Nc2cccc(O)c2)cc(Cl)c2nonc12
#21 CC1(C)CC(=O)/C(=C(\O)Cc2ccccc2)C(=NCCCCCC(=O)O)C1
#22 CC(=O)c1c[nH]c(C(=O)NCc2ccccc2Cl)c1
#23 Cc1ccc(C)c(NC(=O)CCN2CCOCC2)c1
#24 CCCc1cc(NC(=O)COC(=O)c2nccnc2N)n(-c2ccccc2)n1
entry no.,17,18,19,20,21,22,23,24
Mtb hypoxia inh,8,-1,11,x,8,14,3,8
Mtb hypoxia inh growth,6,-2,20,x,4,4,4,23
RN4220 kill,0.0,6.6,11,x,6.7,1.4,3.0,4.2
Sa ugtP lethal,-11,-1,13,x,-2,6,3,2
Autofluor counter,3988,9000,3157,3742,10121,3039,4122,4321
PrP UTR inh,-8,-11,-12,-27,-5,-14,3,3
BJeLR viability,x,-10,-29,79*,5,9,-12,x

#25 Cc1ccc(S(=O)(=O)CC2CSc3nc4ccccc4n32)cc1 (configuration not stated)
#26 CC(=O)Nc1sc(-c2ccccc2)nc1-c1ccccc1
#27 C=CCc1cccc2cc(C(=O)N3CCN(C(=O)c4ccco4)CC3)c(=O)oc12
#28 CC(=O)Nc1ccccc1OCC(=O)NC(C)c1ccccc1 (configuration not stated)
#29 CCc1ccccc1Oc1ccc(S(=O)(=O)N2CCN(C)CC2)cn1
#30 O=C(CNC1CCCCC1)Nc1cccc(C(F)(F)F)c1
#31 Cc1ccccc1NS(=O)(=O)c1nnc(NC(=O)c2ccccc2C)s1
#32 NC(=S)N/N=C/c1ccc([N+](=O)[O-])cc1
entry no.,25,26,27,28,29,30,31,32
Mtb hypoxia inh,5,20,4,1,2,18,0,x
Mtb hypoxia inh growth,9,3,-1,6,7,6,12,x
RN4220 kill,5.7,1.4,3.5,-0.9,1.9,1.0,-2.8,x
Sa ugtP lethal,-2,-4,8,-9,2,2,-15,x
Autofluor counter,10415,5519,5860,2131,x,4004,4616,2425
PrP UTR inh,-25,8,-23,-30,-20,-11,-2,-10
BJeLR viability,4,-1,-1,-4,-4,0,9,-3

#33 Cc1cc(C(=O)CSc2nc(N)cc(N)n2)c(C)n1-c1cccc(F)c1
#34 Cc1cc(Cl)ccc1OCC(=O)Nc1ccc(CN2CCOCC2)cc1
#35 O=C(N/N=C/c1ccccc1O)C(=O)N1CCCCCC1
#36 CCOc1ccc(Nc2oc(-c3cccs3)nc2C#N)cc1
#37 CCN(c1ccc(NC(=O)CCc2nc3sc4c(c3c(=O)[nH]2)CCCC4)cc1)C(C)C
#38 O=C(c1ccc(NC2=NC3CS(=O)(=O)CC3S2)cc1)N1CCc2ccccc2C1 (configuration not stated)
#39 COc1ccc(-c2nc(NC(=O)CSc3nnc4ccccn34)ns2)cc1
#40 CCOC(=O)C(C#N)=C1CCN(Cc2ccccc2)CC1
entry no.,33,34,35,36,37,38,39,40
Mtb hypoxia inh,-1,1,x,3,3,8,2,13
Mtb hypoxia inh growth,-6,4,x,0,3,6,10,3
RN4220 kill,-1.5,-4.3,x,5.2,3.7,1.4,-15,7.0
Sa ugtP lethal,3,1,x,9,2,8,-11,-2
Autofluor counter,7827,6056,7584,7038,5059,3986,x,3703
PrP UTR inh,-3,-30,-43,-25,-16,-64,x,-14
BJeLR viability,-4,-7,-3,-7,3,-4,-1,-5

#41 CCC(=O)c1ccc(OCC(O)CN2CCN(S(=O)(=O)N3CCCCC3)CC2)cc1 (configuration not stated)
#42 O=C(NCCN1CCOCC1)c1cnn2c(-c3ccccc3)cc(-c3ccccc3)nc12
#43 C[C@@H](CSc1ccccc1)CN1CC[C@H](NC(=O)OCc2ccccc2)CCC1=O
#44 CN(C)c1ccc(Nc2nc(N)c([N+](=O)[O-])c(N3CCOCC3)n2)cc1
#45 COc1ccc(C=NNC(=O)c2ccncc2)c(OC)c1
#46 COc1ccc(S(=O)(=O)N2CCOC2CNC(=O)C(=O)NCCc2ccccc2OC)cc1C (configuration not stated)
#47 O=C(CCNS(=O)(=O)c1ccccc1F)NCc1ccc2c(c1)OCO2
#48 COc1ccc(-c2noc(CN3CCCCC3c3nccn3C)n2)cc1 (configuration not stated)
entry no.,41,42,43,44,45,46,47,48
Mtb hypoxia inh,x,-8,x,10,x,3,x,7
Mtb hypoxia inh growth,x,-11,x,6,x,1,x,13
RN4220 kill,-1.2,7.3,x,23,7.2,-12,1.8,2.3
Sa ugtP lethal,6,-7,x,-11,-2,-2,3,6
Autofluor counter,2758,8272,2725,1418,x,6693,u,4735
PrP UTR inh,-10,7,-5,5,x,-3,-27,-8
BJeLR viability,6,5,10,-8,x,-30,-8,-12

Whole records from above. Order of screens: Mtb hypoxia inh, Mtb hypoxia inh growth, RN4220 kill, Sa ugtP lethal, Autofluor counter, PrP UTR inh, BJeLR viability
Profile of COc1ccc(C=NNC(=O)c2ccncc2)c(OC)c1 → x, x, 7.2, -2, x, x, x
Profile of O=C(CCNS(=O)(=O)c1ccccc1F)NCc1ccc2c(c1)OCO2 → x, x, 1.8, 3, u, -27, -8

Further structures.
#49 O=C(NCCN1CCOCC1)c1ccc(=O)oc1
#50 O=C(Cc1ccc(-n2c(=O)c3sccc3n(CC(=O)Nc3ccccc3)c2=O)cc1)NCc1ccco1
#51 O=[N+]([O-])c1ccc(C2C3C(c4ccccc4)=NC4(CCCC4)N32)cc1 (configuration not stated)
#52 O=C(CN1CCCCC1)Nc1cc(Cl)ccc1Oc1ccccc1
#53 Cc1csc(NC(=O)CCc2c(C)nc3cc(-c4ccc(Cl)cc4)nn3c2C)n1
#54 CC(=O)Nc1ccc(S(=O)(=O)N(C)CC(=O)N/N=C/c2ccc(C(=O)O)cc2)cc1
#55 CCNC(=O)COc1ccc(OCc2ccccc2)cc1
#56 COc1ccccc1NC(=O)C1CCN(S(=O)(=O)c2ccc3c(c2)NC(=O)CO3)CC1
entry no.,49,50,51,52,53,54,55,56
Mtb hypoxia inh,17,-1,7,6,1,x,7,4
Mtb hypoxia inh growth,12,12,9,11,13,x,-2,5
RN4220 kill,6.0,-0.2,12,5.3,4.0,x,8.8,1.3
Sa ugtP lethal,5,-3,10,30,23,x,15,7
Autofluor counter,3810,3129,2499,4602,5213,3642,5092,6023
PrP UTR inh,-26,-16,-13,-15,50*,-18,-13,-6
BJeLR viability,-11,0,-4,7,x,-5,13,-2

#57 COc1ccccc1NS(=O)(=O)c1ccc(C)c(C(=O)N2CCCC2)c1
#58 Cc1c(Cl)cccc1NC(=O)CCC(=O)N/N=C/c1ccc[nH]1
#59 CC(C)(C)C(=O)Oc1cccc(Nc2ncnc3ccccc23)c1
#60 Cc1cc(Br)ccc1NC(=O)CN(C)C(=O)c1ccc2ccccc2n1
#61 O=C(Cc1ccc(Cl)c(Cl)c1)NNC(=S)NCC1CCCO1 (configuration not stated)
#62 COc1cccc(-n2c(Cc3cc(=O)[nH]c(=O)[nH]3)nnc2SCC(=O)Nc2ccccc2)c1
#63 CCOC(=O)Cc1csc(N(C)C)n1
#64 Cc1cc(C)cc(N(C(=O)CNS(=O)(=O)c2ccccc2)C(C(=O)NCc2ccccc2)c2ccc(C)o2)c1 (configuration not stated)
entry no.,57,58,59,60,61,62,63,64
Mtb hypoxia inh,-3,x,0,5,9,x,2,-6
Mtb hypoxia inh growth,-7,x,13,3,14,x,-6,-9
RN4220 kill,3.9,x,3.3,2.0,1.4,-1.9,2.1,-1.1
Sa ugtP lethal,9,x,2,-3,3,1,6,-1
Autofluor counter,2929,2656,3721,9206,4394,5392,4234,7695
PrP UTR inh,12,-14,-9,-26,-17,-17,25,-3
BJeLR viability,x,-1,17,x,10,x,4,-15

#65 Cn1ncc2c(c(SCc3ccc(Cl)cc3Cl)nn2C)c1=O
#66 O=C(CNC(c1ccccc1)c1ccccc1)Nc1ccc(F)cc1
#67 S=C(Nc1ccccc1)Nc1ccccc1-n1cccc1
#68 O=C(Cc1ccccc1)NNC(=O)Cc1ccccc1
#69 CC(NC(=O)COC(=O)c1ccc2c(c1)OCO2)c1ccccc1 (configuration not stated)
#70 O=C(Nc1cccc(C(=O)NC2CCCC2)c1)c1ccccc1
#71 Cc1nn(C(=O)c2cccc([N+](=O)[O-])c2)c(C)c1Sc1ccccc1
#72 CCSc1nnc(CNc2ccc(C)cc2)n1C
entry no.,65,66,67,68,69,70,71,72
Mtb hypoxia inh,1,-9,3,-3,7,1,x,14
Mtb hypoxia inh growth,0,-7,12,13,9,0,x,12
RN4220 kill,7.1,1.1,7.8,1.0,2.5,4.4,9.9,2.4
Sa ugtP lethal,-5,17,-4,-1,6,1,-1,5
Autofluor counter,4643,2696,3720,4986,4104,6008,4878,2740
PrP UTR inh,-25,-20,x,-26,-18,-6,-16,-20
BJeLR viability,-5,-2,-4,-5,-18,1,2,6

Some of the entries so far, with bars between the fields.
item | SMILES | Mtb hypoxia inh | Mtb hypoxia inh growth | RN4220 kill | Sa ugtP lethal | Autofluor counter | PrP UTR inh | BJeLR viability
65 | Cn1ncc2c(c(SCc3ccc(Cl)cc3Cl)nn2C)c1=O | 1 | 0 | 7.1 | -5 | 4643 | -25 | -5
66 | O=C(CNC(c1ccccc1)c1ccccc1)Nc1ccc(F)cc1 | -9 | -7 | 1.1 | 17 | 2696 | -20 | -2
67 | S=C(Nc1ccccc1)Nc1ccccc1-n1cccc1 | 3 | 12 | 7.8 | -4 | 3720 | x | -4
68 | O=C(Cc1ccccc1)NNC(=O)Cc1ccccc1 | -3 | 13 | 1.0 | -1 | 4986 | -26 | -5
69 | CC(NC(=O)COC(=O)c1ccc2c(c1)OCO2)c1ccccc1 (configuration not stated) | 7 | 9 | 2.5 | 6 | 4104 | -18 | -18
70 | O=C(Nc1cccc(C(=O)NC2CCCC2)c1)c1ccccc1 | 1 | 0 | 4.4 | 1 | 6008 | -6 | 1
71 | Cc1nn(C(=O)c2cccc([N+](=O)[O-])c2)c(C)c1Sc1ccccc1 | x | x | 9.9 | -1 | 4878 | -16 | 2
